# Screening data deposited in PubChem BioAssay by Southern Research Specialized Biocontainment Screening Center.
# Mtb bLac sens = beta-lactam sensitization of Mtb H37Rv; M. tuberculosis H37Rv growth with meropenem, percent inhibition; hits of this screen are not shown here; 330,000 tested, 0.27% active; inhibition, % at 25 µM; AID 434955;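 active = about 74% or more and at least 40 points above the plate without the antibiotic, then above 30% in a dose series; inconclusive = first-round hits that could not be retested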;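 also: growth measured after seven days incubation then overnight dye step; 0% = bacteria only wells and 100% = bacteria with antibiotic; twin plates without the antibiotic show which effects depend on it; some results filed as inactive read as strong as hits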
# Starred values were filed as active, the others as inactive; ? = inconclusive. Only part of the results is shown; count on the stated rates, not on these rows.
no. | Structure | Mtb bLac sens
1 | C/C(=N\NC(=O)c1ccc(O)cc1)c1ccc2c(c1)OCCO2 | -6
2 | COc1cccc(NC(=O)CN(C)CC(=O)NCc2ccc3c(c2)OCO3)c1 | -4
3 | Cc1ccc(-c2cc(C(=O)N3CCN(c4ccc(O)cc4)CC3)c3ccccc3n2)cc1 | 23
4 | CC1(C(=O)OCC(=O)NCc2ccc(Cl)cc2)CC1(Cl)Cl (stereo not given) | -1
5 | COc1ccccc1CNC(=O)COC(=O)/C=C/c1ccc2ccccc2n1 | 97
6 | COc1ccc2c(c1)OC[C@H]1[C@H]2N2C(=O)CN(Cc3ccc(C)cc3)C(=O)[C@@]2(C)[C@H]1c1ccccc1 | 54
7 | C=C1c2c(Cl)ccc(O)c2C(O)=C2C(=O)[C@]3(O)C(O)=C(C(N)=O)C(=O)[C@@H](N(C)C)[C@@H]3[C@@H](O)C12 (stereo not given in full) | 98
8 | Cc1cc(NC(=O)COc2ccc([N+](=O)[O-])cc2)no1 | 5
9 | CN(c1ccccc1)S(=O)(=O)c1cccc(C(=O)NCc2ccccc2CN2CCCC2)c1 | 52
10 | COC(=O)[C@]1(Cc2ccccc2)N[C@H](CN(C)C(C)=O)[C@@H]2C(=O)N(C)C(=O)[C@@H]21 | 0
11 | COc1ccc(OC)c(NC(=O)CCNC(=O)Cn2ccc3ccccc3c2=O)c1 | -1
12 | CC12CCC(=O)N1C(C(=O)N1CCN(c3ccc(C(F)(F)F)cc3[N+](=O)[O-])CC1)CS2 (stereo not given) | -2
13 | OCC[C@H]1C[C@H](O)[C@@H](O)[C@]2(CCc3ccccc3O2)O1 | -6
14 | CO[C@@H]1C=CC23c4cc5c(cc4CO[C@]2(O)CN(C)[C@H]3C1)OCO5 (stereo not given in full) | 0
15 | Cc1ccc(C)c(OCCC(=O)NNC(=O)c2ccccc2)c1 | 2
16 | O=C(c1cc2ccccc2o1)N1CCN(c2ncccn2)CC1 | -4
17 | COc1cc(C[C@@H](C)[C@@H](C)Cc2ccc(O)c(OC)c2)ccc1O | -7
18 | CN1CCN(C(c2ccc(C(F)(F)F)cc2)c2ccc3cccnc3c2O)CC1 (stereo not given) | 4
19 | CC(CCc1ccccc1)NC(=O)COC(=O)c1cccn1C (stereo not given) | -2
20 | Cc1nc2ccc(NS(=O)(=O)c3c(F)cc(F)cc3Br)cc2s1 | -8
21 | C[C@H](CO)N1C[C@H](C)[C@@H](CN(C)Cc2ccncc2)Oc2c(NC(=O)CCCCCC(=O)Nc3ccccc3N)cccc2C1=O | -2
22 | N=c1c(C(=O)NC2CCCCC2)cc2c(=O)n3ccccc3nc2n1Cc1cccnc1 | -6
23 | CC1CCCCC1NC(=O)CSc1nnc(-c2ccco2)n1C (stereo not given) | -6
24 | CCOC(=O)CN(C(=O)COC(=O)C1=NNC(=O)CC1)c1ccc(F)cc1 | 2
25 | Cn1c(SCC(=O)NC(=O)Cc2ccccc2)nnc1-c1ccc(F)cc1 | 1
26 | O=C(CCS(=O)(=O)c1ccccc1Cl)NCc1ccc(F)cc1 | -6
27 | C(#Cc1c(-c2ccsc2)sc2ccccc12)c1ccsc1 | 4
28 | CCOc1ccccc1N1CCN(C(=O)[C@@H]2CCCN2C2=NS(=O)(=O)c3ccccc32)CC1 | -3
29 | CSc1nc(O)c(C(c2ccc(O)cc2)c2c(O)nc(SC)[nH]c2=O)c(=O)[nH]1 | 6
30 | O=C(NC1CCCCC1)c1ccc(N2CCOCC2)c([N+](=O)[O-])c1 | 3
31 | O=C1CCC(C(=O)Nc2cccc(S(=O)(=O)Nc3ccccc3F)c2)=NN1 | 80
32 | O=C(COc1ccc(-c2nnco2)cc1)NC1CCS(=O)(=O)C1 (stereo not given) | 6
33 | CC1CCc2c(sc3ncnc(SCC(=O)N(C)C4CCS(=O)(=O)C4)c23)C1 (stereo not given) | -2
34 | COc1cc(/C=C/C(=O)OCC(=O)NNC(=O)c2cc(Cl)ccc2OC)ccc1O | 71
35 | CCOc1ccc(NC(=O)COC(=O)c2ccc3c(c2)OCO3)cc1 | -12
36 | COc1ccccc1C(=O)NC(=O)CSc1ccc(C)c(C)c1 | 5
37 | COc1ccc(C(=O)N2CCN(S(=O)(=O)c3ccc4c(c3)OCCO4)CC2)cc1OC | 0
38 | CCOc1ccccc1OCCCC(=O)NNC(=O)c1nn(C)c(=O)c2ccccc12 | -6
39 | O=C(Nc1cccc(S(=O)(=O)NC2=NCCC2)c1)c1ccc(=O)[nH]c1 | -3
40 | COc1ccc([N+](=O)[O-])cc1NS(=O)(=O)c1cc(C(=O)NCc2cccnc2)ccc1Cl | -1
41 | C=CCn1c(SCC(=O)N(C)CC(=O)Nc2ccc(C)cc2)nnc1-c1ccncc1 | -6
42 | C/C(C=O)=C/c1ccccc1 | 1
43 | CCn1c(SCC(=O)NCC2CCCO2)nc2ccccc21 (stereo not given) | -5
44 | CN(c1ccccc1)S(=O)(=O)c1cccc(C(=O)NC2CC(C)(C)NC(C)(C)C2)c1 | -8
45 | COc1ccc(C(CNC(=O)c2cc(SC)ccc2Cl)N(C)C)cc1 (stereo not given) | -9
46 | COc1cccc(N(CC(=O)NC2CCCCCC2)S(=O)(=O)c2ccccc2)c1 | ?
47 | Cc1cccc(NC(=O)CCN2CCC(C)CC2)c1 | -1
48 | COc1ccc(CNC(=O)COC(=O)C2(C)CC2(Cl)Cl)cc1 (stereo not given) | -3
49 | CCN(C(=O)CSc1nccn1C)c1cccc2ccccc12 | 2
50 | O=C(NCc1ccccc1CN1CCCC1)C1CCN(S(=O)(=O)c2ccc(Cl)cc2)CC1 | -18
51 | Cc1cc(C)cc(OCC(=O)Nc2ccc(N3CCOCC3)cc2N2CCOCC2)c1 | -5
52 | Cc1cccc(C)c1OCCOC(=O)c1cccc(S(=O)(=O)N2CCOCC2)c1 | 3
53 | COC(=O)c1cc(C(=O)OCC(=O)NCc2cccs2)cc([N+](=O)[O-])c1 | 4
54 | Cc1ccc(S(=O)(=O)NCC(=O)OCCOc2ccc(Br)cc2)cc1 | 6
55 | COc1ccc(C(CNc2nc(-c3cccnc3)nc3ccccc23)N(C)C)cc1 (stereo not given) | -1
56 | Cc1ccccc1C(=O)Nc1cc(S(=O)(=O)N2CCOCC2)ccc1N1CCN(C)CC1 | -6
57 | Cc1cnc(C(=O)OCC(=O)Nc2cccc(S(=O)(=O)N3CCOCC3)c2)cn1 | -1
58 | CCN1C(=O)C(=O)N(CC(=O)Nc2cc(C)ccc2C)C1=O | -2
59 | Cc1nn(-c2ccc(C(=O)N3CCN(S(=O)(=O)c4ccccc4C(F)(F)F)CC3)cc2)c(C)c1Cl | -3
60 | COC(=O)CNC(=O)Cn1cnc2sc(C)c(S(=O)(=O)N3CCN(c4ccccc4OC)CC3)c2c1=O | 3

# More structures follow.
no. | Structure | Mtb bLac sens
61 | O=C(COC(=O)Cc1ccc(F)cc1)NC1CCCCC1 | 9
62 | CCCCN(C(=O)C(C)(C)Oc1ccc(Cl)cc1)c1c(N)n(CCC)c(=O)[nH]c1=O | -4
63 | COc1cc(OC)cc(-c2sc3ccc(OC)cc3c2C#CC(C)(C)O)c1 | 89
64 | Cc1nnc(NC(=O)CSc2nnc(-c3ccco3)n2C(C)C)s1 | -16
65 | COC(=O)c1ccccc1S(=O)(=O)NNC(=O)c1nn(C)c(=O)c2ccccc12 | -4
66 | Cc1cc(=O)oc2cc(OCC(=O)N3CCN(c4ccccc4)CC3)ccc12 | -2
67 | CCc1ccc(OCC(=O)OCC(=O)NC2CCCC(C)C2C)cc1 (stereo not given) | 3
68 | CC(=O)CSc1ccc(S(=O)(=O)N2CCN(C)CC2)cn1 | 0
69 | COc1ccc(CCNCC(=O)Nc2ccc(OC(F)F)cc2)cc1 | -1
70 | COc1cccc(N2CCN(CC(=O)Nc3ccc(S(=O)(=O)N4CCCCCC4)cc3)CC2)c1 | 29
71 | Cc1c(Cl)cccc1NC(=O)CNC(=O)Cc1n[nH]c(=O)c2ccccc12 | 0
72 | COc1ccccc1NC(=O)COC(=O)CCC1CCCC1 | 75
73 | c1ccc(NC2=NCCN2CC2CCCCCC2)cc1 | -5
74 | O=C(COc1cccc(Br)c1)Nc1ccc(Cl)c(S(=O)(=O)N2CCOCC2)c1 | -1
75 | COc1ccccc1CNC(=O)C(Cc1ccccc1)NC(=O)c1ccccc1 (stereo not given) | 1
76 | O=C(NCC(=O)N1CCN(S(=O)(=O)c2ccccc2F)CC1)c1ccc2ccccc2c1 | -11
77 | CCCCCCCCCCCCCC(=O)O | 8
78 | O=C(NCC(=O)N1CCCCCCC1)c1ccccc1Cl | -6
79 | CCOc1cc2c(cc1OCC)CN(C(=O)c1cccc(S(=O)(=O)N3CCCC3)c1)CC2 | 3
80 | Cc1ccc(S(=O)(=O)N2CCCCC2)cc1NC(=O)c1cc(F)c(F)c(F)c1F | 0
81 | COc1ccc(C(=O)N(C)Cc2cnn(Cc3ccccc3)c2)cc1S(=O)(=O)N1CCOCC1 | -1
82 | CCOc1ccccc1NC(=S)NC(=O)C1CC1 | ?
83 | O=C(COC(=O)C1CCN(c2ccc(C(F)(F)F)cn2)CC1)NCc1ccccc1 | -3
84 | Cc1cccc(Nc2nnc(SCC(=O)c3c(N)n(C4CC4)c(=O)[nH]c3=O)s2)c1 | -2
85 | CCOC(=O)c1ccc(S(=O)(=O)N2CCN(C(=O)C3CSC4(C)CCC(=O)N34)CC2)cc1 (stereo not given) | -8
86 | Cc1ccc(C)c(OCCC(=O)Nc2ccc(S(=O)(=O)N3CCCC3)cc2)c1 | 2
87 | CC(=O)c1cc(F)ccc1OCC(=O)Nc1ccc2c(c1)OCO2 | -4
88 | O=C(O)c1cc(N/N=C/c2c[nH]c3ccccc23)ccc1Cl | 1
89 | CC(=O)Nc1ccc(C(=O)CN2C(=O)NC3(CCOc4ccccc43)C2=O)c(F)c1 (stereo not given) | -8
90 | Cc1cc(C(=O)COC(=O)c2ccccc2O)c(C)n1CC1CCCO1 (stereo not given) | -1
91 | COc1ccc(OC)c(-c2nnc3n2N=C(c2ccc(OC)c(OC4CCCC4)c2)CS3)c1 | 24
92 | COC(=O)C1=C(c2cccc(OCc3ccccc3)c2)C[C@@H]2CC[C@H]1N2C(=O)NCc1ccc(OC)c(OC)c1 | -6
93 | Cc1[nH]c2ccccc2c1C(=O)CSc1nnc(C2CC2)o1 | 1
94 | CNc1nc(NN)nc(Nc2ccccc2)n1 | 39
95 | COC(=O)C1=C(c2ccc(F)cc2OCc2ccccc2)C[C@@H]2CC[C@H]1N2C(=O)NCc1ccc(C(F)(F)F)cc1 | 6
96 | CC(C)(C)OC(=O)C[C@@H]1C/C=C\C[C@@H](CC(=O)N[C@H](CO)Cc2ccccc2)C(=O)NC[C@H](c2ccccc2)OC1=O | -8
97 | COc1cc2c(cc1OC)CN(C(=O)CN1C(=O)NC3(CCC(C)CC3)C1=O)CC2 (stereo not given) | -5
98 | CC(CNC(=O)CN1C(=O)C(=O)N(C2CCCC2)C1=O)c1ccccc1 (stereo not given) | -6
99 | O=S(=O)(c1ccc(OCc2ccc(Br)cc2)cc1)N1CCOCC1 | -10
100 | CC(Oc1ccc(Cl)cc1)C(=O)Nc1ccc(S(=O)(=O)N2CCOCC2)cc1 (stereo not given) | 5
101 | COc1ccc(C2c3c(oc4ccccc4c3=O)C(=O)N2CCN2CCOCC2)cc1OC (stereo not given) | -12
102 | C=CC[C@@H](CC(=O)N[C@@H](CO)Cc1ccccc1)C(=O)NCCOC(=O)[C@@H](CC=C)Cc1ccc(F)cc1 | -7
103 | CC(OC(=O)Cc1c(F)cccc1Cl)C(=O)NC1CCCCC1C (stereo not given) | 4
104 | CN1C(=O)[C@H]2[C@@H](/C=C/c3ccccc3)N3C(=O)CN(Cc4ccc(-c5ccccc5)cc4)C(=O)[C@@]3(C)[C@H]2C1=O | 17
105 | CCN(CC)S(=O)(=O)c1cc(NC(=S)NC(=O)C2CCCC2)ccc1C | 0
106 | CC1CCN(C(=O)COC(=O)c2ccc3ccccc3n2)CC1 | 64
107 | COC(=O)[C@H](CC(C)C)NS(=O)(=O)N[C@@H](CC(C)C)C(=O)OC | -6
108 | CCN(CC(=O)Nc1ccccc1OC)Cc1csc(CC(=O)Nc2ccc(C)cc2)n1 | -4
109 | C#CCOCCOCCOCCNc1nc(N2CCN(C(=O)CCCCCCCCCCNC(=O)[C@@H](CCSC)n3cc(CCO)nn3)CC2)nc(N2CCN(C(=O)CCCCCCCCCCNC(=O)[C@H](CCC(=O)O)n3cc(CCCCCN)nn3)CC2)n1 | 14
110 | CC1CCN(S(=O)(=O)c2cc(C(=O)NC3(C)CCS(=O)(=O)C3)ccc2Br)CC1 (stereo not given) | -13
111 | O=C(CNC(=O)c1cccc(-n2cnnn2)c1)Nc1ccc(F)c(F)c1 | 1
112 | O=C(COC(=O)c1cc[n+]([O-])cc1)Nc1cccc(F)c1 | 0
113 | CN(C)c1ccc(NC(=O)COC(=O)CNC(=O)c2cccs2)cc1 | -7
114 | O=C(OCC(=O)N1CCc2ccccc2C1)c1ccc(F)cc1Cl | 89
115 | CC1(c2ccc(Cl)cc2Cl)NC(=O)N(CC(=O)N2CCN(C(=O)c3ccco3)CC2)C1=O (stereo not given) | -5
116 | CCOC(=O)[C@@H]1[C@H]2COc3ccccc3[C@H]2N2C(=O)N(c3cccc(Cl)c3)C(=O)[C@]12C | -2
